Assay outcomes deposited in PubChem BioAssay by several laboratories.
LANA-H2A inh = blocks KSHV LANA binding to histone H2A/H2B. Q9QR71. cell-free LANA-H2A/H2B peptide, fluorescence polarization. inhibition, % (concentration not given with the values). 0.6% of 320,000 active. AID 2629; in the data active means inhibition mostly above about 10%, no sharp cut-off; inactive means mostly below about 6.7%;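 further: stock transfer was 7.5 nL into about 10 µL; 0% = median of vehicle wells and 100% = median of positive control wells; one replicate is shown; the record names a cut of 25% in any replicate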
Calb FLC = affects C. albicans growth with fluconazole; C. albicans CaCi-2 (fluconazole-resistant clinical isolate) + fluconazole, Alamar Blue growth, 48 h; growth inhibition, % (no concentration beside the values); 0.57% of 300,000 active; AID 1979;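 active means most replicates above 75%; inconclusive means exactly half above 75%; inactive means most below 75%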;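 further: all wells also contain fluconazole at 8 µg/ml as a sub-toxic cotreatment; 0% = median of DMSO wells and 100% = median of geldanamycin control wells; wells of about 8 µL received 7.5 nL stock; the first replicate is given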
Bfl-1 A1 inh = inhibitors of the anti-apoptotic protein A1, read as caspase activation; 0.066% of 330,000 active; MEF A1-2A-BIM cells, Caspase-Glo 3/7 luminescence, 3 h; percent of clofoctol response, vehicle zero; caspase activation, % (no concentration beside the values);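 active means over half of replicate activation scores above 10%, or exactly half above 10 with the replicate mean above 10; inconclusive means replicate mean below 10 yet half the replicates above 10; inactive means over half of replicates below 10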;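 further: wells of about 30 µL received 50 nL stock; many hits fall short of the cut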
T cruzi inh = blocks replication of Trypanosoma cruzi | T. cruzi beta-gal in NIH3T3, luminescence, 90 h | 1.4% of 300,000 active | inhibition, % (concentration not given with the values);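 active means mean inhibition across valid replicates above about 55%, limit read from the data; inconclusive means mean below that limit but half or more replicates reach it; inactive means mean below it, under half of replicates reach it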;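 further: signal also drops with host cell toxicity which is not excluded here; 0% = plate median of DMSO wells and 100% = zero luminescence signal; higher percent means less beta-gal luminescence so fewer parasites; stock transfer was 50 nL into about 50 µL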
Ecoli rRNA inh = inhibitors of bacterial rRNA selective over humanized ribosomes; 1.6% of 350,000 active; GFP signal change (wild-type ribosome), % (test concentration not listed); E. coli WT GFP vs humanized-ribosome RFP mutants, fluorescence, 24 h; stronger effect = lower value; DMSO median 0, no signal -100;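 active means significant combined selectivity score with lowered wild-type GFP, culture density cut under 30%, mutant RFP and density less affected; inactive means any of these conditions unmet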; further: one replicate is shown; some compounds called inactive have numbers as strong as hits
ALR H2O2 inh = blocks human ALR sulfhydryl oxidase activity; inhibition, % (test concentration not listed); P55789; 3.8% of 290,000 active; purified ALR, DTT oxidation, H2O2 HRP-luminol luminescence;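 active means mean and each replicate at 75% or more; inconclusive means only one of the two met; inactive means neither met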;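 further: stock transfer was 7.5 nL into about 7.5 µL; 0% = neutral wells and 100% = wells with inactivated enzyme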
Target sequence (P55789 whole entry, looked up): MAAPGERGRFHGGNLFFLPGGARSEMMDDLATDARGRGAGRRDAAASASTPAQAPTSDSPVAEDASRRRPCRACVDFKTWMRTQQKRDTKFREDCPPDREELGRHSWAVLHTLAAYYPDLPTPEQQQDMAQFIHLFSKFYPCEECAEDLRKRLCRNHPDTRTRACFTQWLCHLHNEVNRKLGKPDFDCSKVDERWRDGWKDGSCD
B2AR ag = agonists of human beta-2 adrenergic receptor inducing internalization. P07550. Am2.2-beta2AR cells, FAP receptor internalization, flow cytometry; reference of the scale not given here. response, % (concentration not given with the values). 0.43% of 340,000 active. AID 504454;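 active means response above a set limit, near 3 SD of response in nonfluorescent compounds, cut at about 42% in these data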;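 further: stock transfer was 100 nL into about 11 µL; a reference agonist was the positive control; negative values mostly stem from fluorescent compounds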
Target sequence (P07550 whole entry, looked up): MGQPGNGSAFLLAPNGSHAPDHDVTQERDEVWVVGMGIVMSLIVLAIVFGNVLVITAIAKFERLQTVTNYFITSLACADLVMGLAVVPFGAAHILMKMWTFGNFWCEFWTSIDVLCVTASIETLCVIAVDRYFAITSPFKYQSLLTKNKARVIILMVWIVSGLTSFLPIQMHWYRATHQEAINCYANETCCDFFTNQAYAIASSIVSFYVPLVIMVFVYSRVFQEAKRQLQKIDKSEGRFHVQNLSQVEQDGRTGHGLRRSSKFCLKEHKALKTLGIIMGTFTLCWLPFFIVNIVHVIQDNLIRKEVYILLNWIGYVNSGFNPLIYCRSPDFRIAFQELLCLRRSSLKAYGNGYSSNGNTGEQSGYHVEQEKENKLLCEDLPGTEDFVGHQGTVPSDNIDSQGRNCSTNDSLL
Beta apoptosis = beta cell apoptosis inhibition; AID 435005; 0.8% of 300,000 active; protection from apoptosis, % (no concentration beside the values); INS-1E cytokine-induced death, ATP luminescence, 48 h; percent of positive-control rescue, neutral wells zero;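 active means all replicates at 75% or more, or half of them and the mean; inconclusive means half reach 75% but not the mean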;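 further: 0% = cytokine-treated negative control wells and 100% = positive control rescue; higher means more ATP so stronger rescue from cytokine killing; wells of about 40 µL received 100 nL stock; the first replicate is given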
Ecoli rRNA inh OD600 = also measured in Ecoli rRNA inh; calls as there; OD600 change, %; measured here: OD600 growth;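 optical density of the mix in the first replicate; 0 = DMSO median and -100 = no signal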
Ecoli rRNA inh RFP = further read-out of Ecoli rRNA inh, marked with its call; RFP signal change, %; measured here: RFP humanized mutant strains;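 first replicate; 0 = DMSO median and -100 = no signal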
The depositor's hits bear a star; u = inconclusive; x = not tested or not shown. A portion of the library, so the mix of outcomes need not match the whole.

smiles,Beta apoptosis,Ecoli rRNA inh OD600,Bfl-1 A1 inh,Ecoli rRNA inh RFP,Ecoli rRNA inh,T cruzi inh,LANA-H2A inh,ALR H2O2 inh,Calb FLC,B2AR ag
CC/C(=N\NC(=O)CSCc1ccccc1Br)c1ccc2c(c1)OCCO2,x,x,-0.6,x,x,-9,-3.5,-1,18,-1
O=C(NNC(=S)NCc1ccco1)c1ccc(S(=O)(=O)N2CCOCC2)cc1,0,5,0.5,1.2,2,-7,1.1,15,-4,10
CCOc1cc(C2C(C#N)=C(N)Oc3n[nH]c(C)c32)ccc1OCCN1CCOCC1 (stereo unspecified),-3,x,2.2,x,x,18,3.4,20,0,2
O=C(NCCc1ccccc1)C(=O)N/N=C/c1ccc2c(c1)OCO2,2,x,0.5,x,x,-6,4.0,-18,0,-2
COc1cc(C2Nc3cccc4cccc(c34)N2)ccc1OC(C)=O,8,x,-0.1,x,x,-7,3.8,-11,-2,11
CCn1c(SCC(=O)NC)nnc1C(C)C,4,x,0.1,x,x,-8,-2.5,-2,x,1
N#Cc1nc(Cc2ccccc2)oc1NCc1ccccc1Cl,-4,x,0.5,x,x,11,-3.3,5,5,-8
CCOC(=O)C1CCCN(C(=O)c2ccc(C)c([N+](=O)[O-])c2)C1 (stereo unspecified),-7,x,0.5,x,x,0,-2.7,1,3,1
COc1ccc(NC(C)=O)cc1S(=O)(=O)Nc1cccc(S(=O)(=O)NC2=NCCC2)c1,-1,10,0.0,-1.6,5,x,0.3,-11,x,-8
O=C(OCCN1C(=O)c2ccccc2C1=O)C1CCN(S(=O)(=O)c2cccs2)CC1,-16,x,2.6,x,x,-2,0.4,x,u,-7
COc1ccc2c(C(=O)c3ccc(C)cc3)n(Cc3ccc(C(N)=O)cc3)[n+]([O-])c2c1,-4,10,0.5,16,8,x,-1.2,10,x,-9
CN1CCc2c(C#N)c(N3CCOCC3)nc(NCC3CCCO3)c2C1 (stereo unspecified),-3,-1,-0.3,3.1,9,24,1.4,2,-13,5
O=C(CCc1nc(-c2ccccc2)no1)NC1CCCCC1,5,x,-0.3,x,x,2,-3.9,-1,-15,0
O=C(O)/C=C/c1ccc(S(=O)(=O)Nc2ccc(C(=O)NCC(=O)O)cc2)cc1,-7,12,-0.2,-1.8,9,-17,-4.8,-3,50*,-1
COc1cc(C2Nc3ccccc3C(=O)N2c2ccc(Cl)cc2)c(Cl)cc1OCC(=O)O (stereo unspecified),2,x,-3.7,x,x,-8,-4.9,x,-9,-10

The list continues:
smiles,Beta apoptosis,Ecoli rRNA inh OD600,Bfl-1 A1 inh,Ecoli rRNA inh RFP,Ecoli rRNA inh,T cruzi inh,LANA-H2A inh,ALR H2O2 inh,Calb FLC,B2AR ag
CCc1cc(C(=O)NNC(=S)NC2CCCCC2)cs1,0,-25,-0.2,-1.9,-2,-20,-11,16,-54,3
NC(=O)C(=O)NCCCN1CCOCC1,-8,-1,-0.3,-1.8,11,-19,3.3,-3,-10,-2
Cc1cccc(Nc2ccccc2C(=O)OCC(=O)N(C)C2CCS(=O)(=O)C2)c1C (stereo unspecified),-4,x,0.3,x,x,-13,-1.0,34,-4,-4
CC(=O)Nc1ccc(Sc2ncccc2C(=O)Nc2cc(Cl)cc(Cl)c2)cn1,-4,2,0.4,-0.8,3,20,-0.3,x,-1,1
CN(C)S(=O)(=O)c1ccc(NC(=O)CSc2nc3ccccc3n2-c2ccccc2)cc1,14,x,0.5,x,x,10,-5.0,-2,1,-5
CC1CCCC(NC(=O)CCC(=O)N2CCOc3ccccc32)C1C (stereo unspecified),-3,-4,-0.8,4.2,-7,17,5.2,-2,-4,-4
CC(C)c1ccccc1OCCNS(C)(=O)=O,-12,x,0.8,x,x,6,1.5,-2,4,-1
CCOC(=O)c1c(C)[nH]c(C(=O)COC(=O)[C@H](C)NC(=O)c2ccccc2Cl)c1C,-3,-77,1.0,-28,-54,1,2.7,x,-2,-4
CCc1ccc2nc3sc(C(=O)Nc4nnc(CC)s4)c(N)c3cc2c1,-2,-3,-0.1,6.7,-8,-14,-1.2,21,44,4
NC(=O)C1=C[C@H](c2coc3ccccc3c2=O)C[C@H](OCc2ccc(CO)cc2)O1,1,0,0.9,-7.3,-7,-5,-1.0,-1,-1,-14
CC1(C)CC(N2CCN(Cc3ccccc3)CC2)=CC(=[N+]2CCCCC2)C1,109*,-46,-0.9,-14,-47,62*,1.4,-26,83*,-5
C/C(=N/Oc1nc(C)cc(C)n1)c1ccc(Cl)cc1Cl,0,4,0.2,0.0,-4,8,-2.1,5,2,-12
Clc1nnc(Cl)c2c1ncn2Cc1ccccc1,-5,7,2.3,0.2,2,-14,4.7,6,-1,-3
O=C(COc1cc2oc(=O)c3c(c2cc1Cl)CCC3)NCCN1CCOCC1,-8,1,-0.6,0.6,4,0,1.6,0,10,-11
O=C(COc1ccccc1)NC(=S)Nc1cccc2cc(O)ccc12,-4,-8,1.9,3.4,-11,4,4.0,43,2,-1

The list continues:
smiles,Beta apoptosis,Ecoli rRNA inh OD600,Bfl-1 A1 inh,Ecoli rRNA inh RFP,Ecoli rRNA inh,T cruzi inh,LANA-H2A inh,ALR H2O2 inh,Calb FLC,B2AR ag
Cc1ccc(OCC(=O)Nc2ccc(S(=O)(=O)N3CCN(C)CC3)cc2)cc1,-4,x,0.7,x,x,-19,-3.9,-5,-33,-5
COc1ccc(NC(=O)NCCCN2CCN(c3cc(C)ccc3C)CC2)cc1,-3,-54,0.4,29,-16,-2,3.9,7,22,13
Cc1ccc(S(=O)(=O)NC(=O)c2cc(C)n(CCCn3ccnc3)c2C)cc1,-11,x,-0.3,x,x,-5,-0.7,17,-5,2
Cc1ccc(CNC(=O)COC(=O)c2ccc(S(=O)(=O)N(C)C)cc2)cc1,-10,25,0.2,2.6,20,4,-1.4,-8,10,3
CCOc1ccc(NS(=O)(=O)c2coc(C(N)=O)c2)cc1,0,0,-0.1,-1.6,5,-6,0.8,-33,-8,1
Cc1ccc(NC(=O)c2cnccn2)cc1S(=O)(=O)N(C)C,-1,-7,0.4,-7.8,7,-7,-1.0,-21,-8,-20
CCN(CC)C(=O)CN1C(=O)COCC1=O,-3,14,0.3,-5.0,18,-25,1.6,-5,0,12
CC#CC(=O)N1CCC(Oc2cccc(C(=O)NCc3ccccn3)c2)CC1,1,2,-0.8,1.3,4,4,1.3,1,-2,-5
Cc1ccc(NC(=O)C2C3CCC(O3)C2C(=O)O)cc1C (stereo unspecified),2,7,1.4,-0.8,3,-15,2.1,-3,-2,-7
O=[N+]([O-])c1cc(/C=N\Nc2nc(-c3ccccc3)cs2)ccc1O,9,-10,-0.6,-5.0,-8,3,0.5,-8,26,13
Cc1ccc(NC(=O)c2ccccc2NS(=O)(=O)c2ccc(Cl)s2)cc1S(=O)(=O)N1CCOCC1,x,-76,0.2,-24,-51,10,1.2,0,42,17
Cc1cc(C(=O)COc2ccc3ccc(=O)oc3c2)c(C)n1Cc1cccs1,0,x,0.1,x,x,3,-7.4,88*,-10,-1
COc1ccc(C2=NOC(C(=O)NCc3cccnc3)C2)cc1OC (stereo unspecified),x,9,0.1,0.6,13,0,-1.0,0,11,-13
C[C@H](NC(=O)c1nc[nH]c1C(=O)N[C@@H](Cc1ccccc1)C(=O)OC(C)(C)C)C(=O)OC(C)(C)C,-1,-11,0.2,11,7,25,-5.1,-6,19,0
CCN(CC)S(=O)(=O)c1ccc(NC(=O)CSc2ncnc3ccccc23)cc1,-6,x,u,x,x,4,0.9,98*,-1,-10

Next section:
smiles,Beta apoptosis,Ecoli rRNA inh OD600,Bfl-1 A1 inh,Ecoli rRNA inh RFP,Ecoli rRNA inh,T cruzi inh,LANA-H2A inh,ALR H2O2 inh,Calb FLC,B2AR ag
O=C(CN(C(=O)CSc1nnc(COc2ccccc2)o1)c1ccc(F)cc1)NC1CCCCC1,0,x,0.3,x,x,21,-1.3,-6,-19,-4
CC(OC(=O)c1ncc(Cl)c(Cl)c1Cl)C(=O)NC1CCCCC1C (stereo unspecified),1,2,-0.3,-5.6,-2,37,-0.6,-1,-3,0
CC1CCN(c2cc(C#N)c(C#N)cc2[N+](=O)[O-])CC1,0,x,0.6,x,x,11,-0.1,-9,-45,-5
O=P(O)(CCc1ccccn1)CN1CCCCC1,x,x,1.6,x,x,-14,-0.2,4,-11,1
Cc1ccc(C)c(N2CCN(S(=O)(=O)c3csc(C(N)=O)c3)CC2)c1,-6,-30,-0.1,-16,-33,1,1.8,3,4,8
COc1ccccc1CCNC(=O)CSc1ccc(-c2cccs2)nn1,-2,-14,0.2,7.9,-12,-1,-0.7,-1,31,-6
Cn1ncc(C(=O)Nc2ccc(Cl)cc2)c1C(F)(F)F,-2,-17,0.0,-1.2,-16,-9,0.0,0,-1,-2
C=C(C)C(=O)OCC(=O)NCc1ccccc1,-4,10,-0.4,3.2,12,3,-1.9,1,-13,19
O=C(NCc1ccc(Cl)cc1)C1C2C=CC3(CN(Cc4cccnc4)C(=O)C13)O2 (stereo unspecified),-20,-6,0.5,-6.8,-15,1,0.3,0,-16,-10
COCCn1c(N)c(N(Cc2ccccc2)C(=O)c2ccc(-c3ccc(Cl)cc3)o2)c(=O)[nH]c1=O,-6,8,0.3,1.6,6,2,-6.2,1,-2,12
CC(C)(C)Sc1ccc(/C=N/O)cc1[N+](=O)[O-],-2,-39,0.0,-15,-43,3,1.8,-11,10,2
CCOC(=O)c1ccc(NC(=S)N2CCN(CCN=CC3=C(O)CC(c4ccccc4)CC3=O)CC2)cc1 (stereo unspecified),-6,1,-0.4,53,10,-13,-0.8,-16,-1,13
CCC1CCCCN1Cc1c(O)ccc2c(=O)c(-c3ccccc3OC)coc12 (stereo unspecified),3,8,-0.6,-2.3,2,-8,-1.3,2,28,0
O=C(CCC(F)(F)F)N1CCC(CO)(CCc2ccccc2)CC1,x,4,0.0,-0.9,14,-12,1.1,-3,-4,-3
Cc1nn(-c2cc(C)c3ccccc3n2)c2c1CCC2,16,x,-1.5,x,x,-7,3.0,-4,2,-5

The list goes on.
smiles,Beta apoptosis,Ecoli rRNA inh OD600,Bfl-1 A1 inh,Ecoli rRNA inh RFP,Ecoli rRNA inh,T cruzi inh,LANA-H2A inh,ALR H2O2 inh,Calb FLC,B2AR ag
Cc1cc(Br)ccc1NC(=O)c1sc2ncnc(N3CCN(c4ccccn4)CC3)c2c1C,18,8,-0.1,2.3,2,10,0.8,-7,4,-2
CCOc1cccc2cc(-c3csc(NC(=O)CCC(=O)NCCN4CCCCC4C)n3)c(=O)oc12 (stereo unspecified),-4,-19,-6.2,-0.8,-9,-21,6.6,99*,1,-5
Cc1ccc(-c2nnc(-c3ccc(NC(=O)Cc4cccs4)cc3)o2)cc1,43,17,0.4,2.6,12,45,2.4,-5,19,7
O=C(Nc1cccc2oc(=O)ccc12)c1ccc([N+](=O)[O-])cc1[N+](=O)[O-],38,4,0.2,-6.6,-13,53,-2.4,-46,6,0
